AmpC nodet inh: inhibitors of E. coli AmpC beta-lactamase without detergent; P00811; AmpC nitrocefin hydrolysis, absorbance 480 nm, no detergent; potencies from a single point are estimates; Potency, µM (titrated, usually from 28.7 µM), for the others: at the highest dose activity change, negative = inhibition; hit rate 1.8% among 71,000; active = falling curve, for most hits resting on a single point; inconclusive = weak or doubtful change; inactive = flat or rising curve; further: % of control where 0% means no effect; about half of the hits show no inhibition at the top dose; a quarter of the inactives give rising signals
Target sequence (P00811 whole entry, looked up): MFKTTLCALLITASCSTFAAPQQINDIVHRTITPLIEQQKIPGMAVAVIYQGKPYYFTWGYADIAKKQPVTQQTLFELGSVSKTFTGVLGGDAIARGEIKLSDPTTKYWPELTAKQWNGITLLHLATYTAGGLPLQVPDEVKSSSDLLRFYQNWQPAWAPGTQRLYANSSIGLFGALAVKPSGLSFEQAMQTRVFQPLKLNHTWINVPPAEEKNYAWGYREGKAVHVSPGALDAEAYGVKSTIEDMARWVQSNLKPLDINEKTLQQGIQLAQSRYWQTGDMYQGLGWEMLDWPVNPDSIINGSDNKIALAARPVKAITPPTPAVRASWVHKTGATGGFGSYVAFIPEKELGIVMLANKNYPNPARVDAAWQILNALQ
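AmpC in 20 mM phosphate buffer pH 7.0 was preincubated 15 min at room temperature with compounds. Nitrocefin (800 uM stock) was then added and hydrolysis followed at 480 nm every 20 s for 4 min.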
The depositor's hits bear a star; [ ] = another dose, or the depositor's remark. Potency means the concentration at half of the fitted maximal effect. Only part of the results is shown; the hit share may differ from the screen's.

SMILES	AmpC nodet inh
Cc1ccc2c(c1)N(CCCC(=O)NCC1COc3ccccc3O1)C(=O)CO2 (centres undefined)	66%
CC(C)(C)n1nnnc1C(c1cccs1)N(Cc1cccnc1)CC1CCCO1 (centres undefined)	71%
CCOC(=O)C1CCCN(C/C(O)=C(\C#N)c2nc(-c3ccc(Cl)cc3)cs2)C1 (centres undefined)	88%
O=C1NC(O)=NC1(c1ccccc1)c1ccccc1	-4%
Cc1ccc(OCCn2c(=O)cnc3ccccc32)cc1	11%
O=S(=O)(N1CCCCC1)n1c(Cc2ccccc2)nc2ccccc21	7%
CCOc1ccccc1N1CC(C(=O)Nc2ccc(C(=O)O)cc2)CC1=O (centres undefined)	1%
CC1(C)CC(NC(=O)C(F)(F)F)CC(C)(C)N1OC(=O)c1ccco1	27%
Cc1noc(C)c1S(=O)(=O)N1CCCC(C(=O)Nc2ccc(Cl)cn2)C1 (centres undefined)	11%
CCN(CC)S(=O)(=O)c1ccc2[nH]c(=O)[nH]c2c1	-11%
Fc1cccc(F)c1C(Nc1nncs1)Nc1nncs1	2%[5.75 µM]
O=C(c1ccncc1)N1CCC2(CC1)CN(c1ccccn1)C2	11%
COc1ncc2nc(-c3ccccc3)c(=O)n(Cc3cccs3)c2n1	42%
O=C(O)c1c[nH]c2c(ccc3[nH]cc(C(=O)O)c(=O)c32)c1=O	8%[5.75 µM]
Cc1cccc(N2C(=O)CC(N(C(=O)c3ccco3)c3cccc(C)c3)C2=O)c1 (centres undefined)	27%
CS(=O)(=O)Nc1ccc(C(=O)NCCSCc2ccco2)cc1	-10%
Cc1c(C)c2ccc(OC3CCCCC3=O)cc2oc1=O (centres undefined)	12%
Cn1c(C(=O)NCCC2=CCCCC2)cc2c(=O)n3ccccc3nc21	7%
Cn1c(=O)[nH]c(=O)c2[nH]c(N(Cc3ccccc3)Cc3ccccc3)nc21	4%
O=[n+]1c2c(n([O-])c3cc(F)ccc31)CCCC2	-17%

The list goes on; the last four above are carried over.
SMILES	AmpC nodet inh
Cc1c(C)c2ccc(OC3CCCCC3=O)cc2oc1=O (centres undefined)	12%
Cn1c(C(=O)NCCC2=CCCCC2)cc2c(=O)n3ccccc3nc21	7%
Cn1c(=O)[nH]c(=O)c2[nH]c(N(Cc3ccccc3)Cc3ccccc3)nc21	4%
O=[n+]1c2c(n([O-])c3cc(F)ccc31)CCCC2	-17%
NC1=C(O)C(=O)[C@H](c2c[nH]c3ccc(OCc4ccccc4)cc23)O1	-17%[5.75 µM]
COCCN(CCOC)c1nc(C)nc2c1nc(-c1ccccc1)n2CC1CCN(C)CC1	72%
CCCn1c(Sc2nnnn2-c2ccccc2)n[nH]c1=O	-4%
O=C1CC(c2nc3ccccc3[nH]2)CN1Cc1ccccc1 (centres undefined)	13%
Cc1ccc(S(=O)(=O)NC(=NC(C)C(=O)O)c2ccccc2)cc1 (centres undefined)	-15%
Cc1ccc2c(c1C)NC(C)CC2C (centres undefined)	-6%
O=C(CSc1nc2[nH]ncc2c(=O)n1-c1ccccc1Br)NCc1ccco1	8%
CCOc1ccc(NS(=O)(=O)c2ccc3[nH]cc(C(=O)NCCOC)c(=O)c3c2)cc1	8%
Clc1ccccc1C(c1nnnn1Cc1ccco1)N1CCN(Cc2ccco2)CC1 (centres undefined)	47%
N#Cc1c(NC(=O)CN2CCOCC2)oc(-c2ccccc2)c1-c1ccccc1	133%
O=C(CCCSc1nc2ccccc2[nH]1)Nc1nnc(-c2ccccc2)o1	-13%
COc1ccc(-c2cc(C(=O)N3CCc4ccccc4C3)no2)cc1OC	129%
CCc1ccc(C2N(c3ccc(OC)cc3)C(=O)C3CCCN32)cc1 (centres undefined)	61%
CCC(C)(C(=O)NC1CCCC1)N(Cc1ccco1)C(=O)c1ccc2c(c1)OCO2 (centres undefined)	18%
O=C(Cn1cc2c(n1)CCCC2)N1CCCc2ccccc21	7%
CCOc1cccc(C(=O)N2CCCCC2c2cccnc2)c1 (centres undefined)	18%
COc1cccc(-c2nc(NCc3ccccc3OC)c3ccccc3n2)c1	0%
COc1ccc(C(C)C)cc1S(=O)(=O)N1CCN(C)CC1	3%
CC(c1ccccc1)C1CC(=O)N(c2ccc(C(=O)O)cc2)C1=O (centres undefined)	2%
COc1cccc(C(=O)CSc2nnc(-c3cc(OC)cc(OC)c3)o2)c1	16%
Cc1cc(C)n(C(=O)CSc2nnc(SCC(=O)n3nc(C)cc3C)s2)n1	-5%
Cc1ccc(-c2nc3cnccn3c2Nc2ccccc2)o1	55%
O=C(CSc1nc2c(c(=O)n1-c1ccc(Cl)cc1)SCC2)NCC1CCCO1 (centres undefined)	8%
Nc1c(N2CCCC2)cc(Cl)c2nonc12	-6%
COc1ccc(-n2c(=O)cnc3cnc(N(C)C)nc32)cc1	16%
Cc1cccc(OCCCC(=O)Nc2ccc(S(=O)(=O)Nc3onc(C)c3C)cc2)c1	-11%
Cc1nc(CN2CCCC2=NC#N)n(-c2ccccc2)n1	6%
C[C@@H](C(=O)Nc1ccc2ccccc2c1)[C@H]1C[C@]1(C)[C@H](NP(=O)(c1ccccc1)c1ccccc1)c1ccccc1	38%
COc1cc2c(cc1OC)C(C(=O)NCc1cccnc1)C(c1cccnc1)N(C)C2=O (centres undefined)	-2%
Cc1nnc(NC(=O)Cc2cccs2)s1	-3%
CN(C)S(=O)(=O)c1cccc(C(=O)NCC2CCCO2)c1 (centres undefined)	-3%
COCCOC(=O)C1=C(C)NC2=C(C(=O)CCC2)C1c1cc2c(cc1Br)OCO2 (centres undefined)	30%
O=C=Nc1ccc(Cc2ccc(N=C=O)cc2)cc1 (tested in a mixture with another compound)	-10%[5.75 µM]
CCOC(=O)c1cc2sc(C)cc2n1CC(=O)N1CCN(C(=O)c2ccco2)CC1	99%
CCCCNC(=O)Nc1ccccc1C(=O)NCc1ccco1	-6%
COc1ccc(-c2nnc(SCCc3ccccc3)n2N)cc1	-1%
CCN(CCNC(=O)CN1CCN(Cc2ccc(Cl)cc2)C1=O)c1ccccc1	110%
COc1ccc(C)cc1S(=O)(=O)N(C)CC(=O)NC1CCCCC1	45%
COc1ccc2nc(NC(=O)C3CCCN(S(=O)(=O)c4c(C)noc4C)C3)sc2c1 (centres undefined)	4µM*[single pt active]
Cc1cc(Nc2ccc(F)c(Cl)c2)n2ncnc2n1	14%
O=C(c1cccc(C(=O)N2CCN(c3ccccc3F)CC2)c1)N1CCN(c2ccccc2F)CC1	86%
COc1ccc(CCNC(=O)CC2Nc3ccccc3NC2=O)cc1OC (centres undefined)	13%
CN(C)Cc1ccc(C(C)(C)C)cc1-c1cc(C(C)(C)C)ccc1CN(C)C	2%[5.75 µM]
COc1ccc(S(=O)(=O)Nc2cc(C)ccc2OC)cc1C	13%
Cc1ccc(CNC(=O)CSc2ncccn2)cc1	-4%
Cc1nn(CCCNC(=O)C2CCCO2)cc1Br (centres undefined)	19%
CC(C)Cc1cc(C(=O)Nc2sc3c(c2C#N)CCCC3)no1	4µM*[single pt active]
CN(C)CCNC(=O)c1cc2ccccc2oc1=O	-12%
COc1ccc(OC)c(Nc2ncnc3c2cnn3-c2ccccc2)c1	30%
CCC(=O)N1CC23C=CC(CC2CC12CCCCC2)O3 (centres undefined)	12%
CC1(C(=O)NCCCNc2ncc(C(F)(F)F)cc2Cl)C=CC2(CCCCC2)N1C(=O)c1ccccc1 (centres undefined)	8%
Nc1c(C(=O)NCCN2CCOCC2)c2nc3ccccc3nc2n1CCc1ccccc1	139%
CC(C)c1nc2oc3c(=O)[nH]cnc3c2c2c1CCC2	8%
Cn1c(SCc2nnc(-c3ccccc3Br)o2)nc2sc3c(c2c1=O)CCC3	36%
C=CCn1c(=O)c(C(=O)Nc2nnc(C)s2)c(O)c2ccccc21	5%
O=C(CC1C(=O)OCN1C(=O)OCc1ccccc1)OCC(=O)c1ccccc1 (centres undefined)	35%
CCCCNC(=O)Nc1ccc(Br)cn1	10%
CC(C)=CCl	-4%
COC(=O)Cc1c(C)nc2nc(NCc3ccc(Cl)cc3)[nH]n2c1=O	-24%
CN1CCN(CC(=O)Nc2ccc(Oc3ccccc3)cc2)CC1	9%

Brought forward from above: 5 entries, followed by the next part.
SMILES	AmpC nodet inh
O=C(CC1C(=O)OCN1C(=O)OCc1ccccc1)OCC(=O)c1ccccc1 (centres undefined)	35%
CCCCNC(=O)Nc1ccc(Br)cn1	10%
CC(C)=CCl	-4%
COC(=O)Cc1c(C)nc2nc(NCc3ccc(Cl)cc3)[nH]n2c1=O	-24%
CN1CCN(CC(=O)Nc2ccc(Oc3ccccc3)cc2)CC1	9%
COc1ccc(CCn2nnnc2C(CC(C)C)N2CCC(C(N)=O)CC2)cc1OC (centres undefined)	34%
CC(=O)O[C@H]1C(=O)[C@@]2(C)[C@H]([C@H](OC(=O)c3ccccc3)[C@]3(O)C[C@H](OC(=O)[C@H](O)[C@@H](NC(=O)c4ccccc4)c4ccccc4)C(C)=C1C3(C)C)[C@]1(OC(C)=O)CO[C@@H]1C[C@@H]2O	122%
NC(=O)C[C@H](N)C(N)=O	-9%[5.75 µM]
Cn1cnnc1SCC(=O)c1ccc2c(c1)CCCC2	45%
CN(Cc1cccs1)C(=O)COc1ccc(-c2nnco2)cc1	6%
c1ccc(CNc2ncnc3nc[nH]c23)cc1	-5%[12.8 µM]
O=C(O)CCc1ccc(-c2cccs2)n1NC(=O)c1ccc(O)cc1	-4%
Cc1c2c(nc3ccccc13)OCC2	4%
O=C(CCCN1CCN(c2ccccn2)CC1)c1ccc(F)cc1	22%[12.8 µM]
CN1CCc2cccc3c2[C@H]1Cc1ccc(O)c(O)c1-3	2%
Nc1cccc(N=Cc2c(O)n(Cc3ccc(F)cc3)c(=O)[nH]c2=O)c1	17%
S=C1NCCN1	-3%
CCCCCCN(C(=O)CCCCCN1C(=O)NC(c2ccc(-c3ccccc3)cc2)C(C(=O)OCc2ccccc2)=C1C)C(C(=O)NCCCC)c1ccc(OCC(=O)O)c(C(=O)O)c1 (centres undefined)	134%
COc1cccc(-c2cc(C(=O)N3CCCc4ccccc43)no2)c1	18%
CCOC(=O)c1c(NC(=O)CSc2nnc(CNC(=O)c3ccco3)n2C)sc2c1CCC2	114%
Cc1ccc(-c2csc(N3CCC(C(N)=O)(N4CCCCC4)CC3)n2)cc1	4µM*[single pt active]
CCn1cc(C(=O)N2CCN(C3CCCCC3)CC2)c2cc(OC)c(OC)cc2c1=O	50%
CCn1c(COc2ccccc2)nnc1SCC(=O)CC(=O)Nc1ccccc1OC	86%
COc1ccccc1-c1cc(C(F)(F)F)nc(S(=O)(=O)CCCC(=O)Nc2cc(C)on2)n1	-6%
Cc1cc(C)n(-c2nc(NC(C)(C)C)nc(NC(C)(C)C)n2)n1	-4%

Five structures from above, ordered by count of non-hydrogen atoms, rising.
SMILES	AmpC nodet inh
S=C1NCCN1	-3%
Cn1cnnc1SCC(=O)c1ccc2c(c1)CCCC2	45%
Cc1cc(C)n(-c2nc(NC(C)(C)C)nc(NC(C)(C)C)n2)n1	-4%
Nc1cccc(N=Cc2c(O)n(Cc3ccc(F)cc3)c(=O)[nH]c2=O)c1	17%
CCCCCCN(C(=O)CCCCCN1C(=O)NC(c2ccc(-c3ccccc3)cc2)C(C(=O)OCc2ccccc2)=C1C)C(C(=O)NCCCC)c1ccc(OCC(=O)O)c(C(=O)O)c1 (centres undefined)	134%

Carrying on:
SMILES	AmpC nodet inh
COc1ccc(S(=O)(=O)N2CCN(S(=O)(=O)c3ccc4c(c3)OCCO4)CC2)cc1	-10%
Cn1cccc1P(=O)(c1cccn1C)c1cccn1C	20%
[O-]/[N+](=C\c1ccncc1)c1ccccc1	-1%
COc1ccccc1N1CCN(C(=O)c2ccc(S(=O)(=O)N3CCCC3)cc2)CC1	112%
Cn1c(=O)c2c(nc(N3CCCCCC3)n2Cc2cccc3ccccc23)n(C)c1=O	96%
O=C(O)c1ccccc1NC(=O)C1CCCO1 (centres undefined)	-12%
COc1cccc(C2C3CN(C)CC=C3C(C#N)=C(N)C2(C#N)C#N)c1OC (centres undefined)	25%
COc1ccccc1NC(=O)c1cc(Cl)ccc1NC(=O)c1ccco1	13%
COc1cccc(Nc2ncc3nc(CCc4ccccc4)c(=O)n(C4CC4)c3n2)c1	16%
CCn1nnnc1SCC(=O)Nc1cccc(C)n1	3%
COC(=O)c1ccc(CS(=O)(=O)c2ccccc2C)o1	8%
CCOC(=O)CNC(=O)C(NC(=O)C1CCC(C)CC1)C(C)CC (centres undefined)	10%
O=c1oc2ccccc2cc1-c1nnc(-c2cccc(Br)c2)o1	15%
Cn1c(=O)c2c(nc(N3CCOCC3)n2CC(=O)c2ccccc2)n(C)c1=O	2%
COc1ccc(S(=O)(=O)N(C)CC(=O)NC2CCCCC2)cc1OC	13%
CCCCN1CC(C(=O)NC2CCCCC2)CC1=O (centres undefined)	5%
COc1ccc(OC)c2[nH]c(=O)c(CCNC(=O)COc3ccccc3)cc12	54%
O=C(c1ccco1)N1CCC2(CC1)CN(c1cccc(-c3ccccc3)c1)C2	102%
COc1ccc(-c2nc(-c3ccccc3)no2)c(OC)c1	32%
COc1ccc(-c2cc(C(F)(F)F)nc(SCCC(=O)NCc3ccco3)n2)cc1	27%

Taken from above:
Value for `COc1ccc(S(=O)(=O)N2CCN(S(=O)(=O)c3ccc4c(c3)OCCO4)CC2)cc1` in AmpC nodet inh: -10%
Value for `COc1ccc(-c2cc(C(F)(F)F)nc(SCCC(=O)NCc3ccco3)n2)cc1` in AmpC nodet inh: 27%

Continued:
SMILES	AmpC nodet inh
O=C(O)C1C2C=CC3(CN(Cc4ccncc4)C(=O)C13)O2 (centres undefined)	0%
CCn1c(=O)[nH]c2ccccc21	30%
O=C(O)c1ccc(Cl)cc1NC(=O)C1CCCO1 (centres undefined)	-6%
CCOC(=O)NC(NC(=O)OCC)C(=O)c1ccccc1	12%
CN(C)c1ccc(C2N(c3cccc(Cl)c3)C(=O)C3CCCN32)cc1 (centres undefined)	2%
